# A1 inh – inhibitors of the anti-apoptotic protein A1, read as caspase activation; MEF A1-2A-BIM cells, Caspase-Glo 3/7 luminescence, 3 h; percent of clofoctol response, vehicle zero; caspase activation, % (concentration not given with the values); 330,000 compounds, 0.066% hits;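 active means over half of replicate activation scores above 10%, or exactly half above 10 with the replicate mean above 10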;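 further: wells of about 30 µL received 50 nL stock; many hits fall short of the cut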
# B2AR ag – activates human beta-2 adrenergic receptor causing internalization. P07550. Am2.2-beta2AR cells, FAP receptor internalization, flow cytometry; reference of the scale not given here. response, % (test concentration not listed). 340,000 compounds, 0.43% hits;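 active means response above a set limit, near 3 SD of response in nonfluorescent compounds, cut at about 42% in these data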;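 further: stock transfer was 100 nL into about 11 µL; a reference agonist was the positive control; negative values mostly stem from fluorescent compounds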
# Calb FLC – affects C. albicans growth with fluconazole. C. albicans CaCi-2 (fluconazole-resistant clinical isolate) + fluconazole, Alamar Blue growth, 48 h. growth inhibition, % (concentration not given with the values). 300,000 compounds, 0.57% hits;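 active means most replicates above 75%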;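 further: all wells also contain fluconazole at 8 µg/ml as a sub-toxic cotreatment; 0% = median of DMSO wells and 100% = median of geldanamycin control wells; wells of about 8 µL received 7.5 nL stock; the first replicate is given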
# LANA-H2A inh – blocks KSHV LANA binding to histone H2A/H2B; Q9QR71; cell-free LANA-H2A/H2B peptide, fluorescence polarization; inhibition, % (concentration not given with the values); 320,000 compounds, 0.6% hits; AID 2629; in the data active means inhibition mostly above about 10%, no sharp cut-off; inactive means mostly below about 6.7%;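 further: stock transfer was 7.5 nL into about 10 µL; 0% = median of vehicle wells and 100% = median of positive control wells; one replicate is shown; the record names a cut of 25% in any replicate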
# Target sequence (Q9QR71 whole entry, looked up): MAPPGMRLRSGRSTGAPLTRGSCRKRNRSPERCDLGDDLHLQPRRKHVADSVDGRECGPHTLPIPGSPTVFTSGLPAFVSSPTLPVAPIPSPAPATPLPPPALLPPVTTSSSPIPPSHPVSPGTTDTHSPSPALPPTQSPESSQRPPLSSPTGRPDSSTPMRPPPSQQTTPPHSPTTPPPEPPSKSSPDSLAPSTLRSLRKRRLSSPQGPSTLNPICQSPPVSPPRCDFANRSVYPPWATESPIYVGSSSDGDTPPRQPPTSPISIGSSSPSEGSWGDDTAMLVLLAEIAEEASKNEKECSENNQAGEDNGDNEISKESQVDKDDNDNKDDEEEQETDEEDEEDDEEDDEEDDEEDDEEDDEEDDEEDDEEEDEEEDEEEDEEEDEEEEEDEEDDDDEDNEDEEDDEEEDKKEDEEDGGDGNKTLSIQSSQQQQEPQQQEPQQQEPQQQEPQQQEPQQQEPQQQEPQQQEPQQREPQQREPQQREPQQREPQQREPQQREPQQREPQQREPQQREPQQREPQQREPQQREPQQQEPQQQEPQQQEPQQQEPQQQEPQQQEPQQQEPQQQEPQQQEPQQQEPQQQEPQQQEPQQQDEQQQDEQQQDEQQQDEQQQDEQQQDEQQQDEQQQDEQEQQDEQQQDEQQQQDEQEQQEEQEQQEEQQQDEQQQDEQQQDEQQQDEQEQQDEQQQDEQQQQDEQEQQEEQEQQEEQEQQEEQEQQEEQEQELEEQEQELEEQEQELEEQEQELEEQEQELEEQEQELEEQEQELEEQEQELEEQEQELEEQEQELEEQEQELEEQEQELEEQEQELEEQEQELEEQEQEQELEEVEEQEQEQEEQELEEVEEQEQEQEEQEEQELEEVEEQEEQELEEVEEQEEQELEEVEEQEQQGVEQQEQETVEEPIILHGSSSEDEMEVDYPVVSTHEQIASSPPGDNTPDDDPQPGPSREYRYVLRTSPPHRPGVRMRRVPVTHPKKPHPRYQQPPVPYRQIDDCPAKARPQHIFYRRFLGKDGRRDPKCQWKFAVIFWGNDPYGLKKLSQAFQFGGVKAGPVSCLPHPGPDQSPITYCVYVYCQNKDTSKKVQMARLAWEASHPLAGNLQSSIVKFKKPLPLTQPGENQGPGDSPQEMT
# Ecoli rRNA inh – inhibits bacterial ribosomal RNA function over humanized ribosomes; E. coli WT GFP vs humanized-ribosome RFP mutants, fluorescence, 24 h; active compounds read low; DMSO median 0, no signal -100; GFP signal change (wild-type ribosome), % (concentration not given with the values); 350,000 compounds, 1.6% hits; AID 720706;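 active means significant combined selectivity score with lowered wild-type GFP, culture density cut under 30%, mutant RFP and density less affected; inactive means any of these conditions unmet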; further: one replicate is shown; some compounds called inactive have numbers as strong as hits
# Beta cell apopt – beta cell apoptosis inhibition. INS-1E cytokine-induced death, ATP luminescence, 48 h; percent of positive-control rescue, neutral wells zero. protection from apoptosis, % (no concentration beside the values). 300,000 compounds, 0.8% hits. AID 435005;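 active means all replicates at 75% or more, or half of them and the mean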;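 further: 0% = cytokine-treated negative control wells and 100% = positive control rescue; higher means more ATP so stronger rescue from cytokine killing; wells of about 40 µL received 100 nL stock; the first replicate is given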
# T cruzi repl – blocks replication of Trypanosoma cruzi. T. cruzi beta-gal in NIH3T3, luminescence, 90 h. inhibition, % (test concentration not listed). 300,000 compounds, 1.4% hits;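 active means mean inhibition across valid replicates above about 55%, limit read from the data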;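 further: signal also drops with host cell toxicity which is not excluded here; 0% = plate median of DMSO wells and 100% = zero luminescence signal; higher percent means less beta-gal luminescence so fewer parasites; stock transfer was 50 nL into about 50 µL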
# ALR H2O2 inh – inhibitors of human sulfhydryl oxidase ALR; purified ALR, DTT oxidation, H2O2 HRP-luminol luminescence; P55789; 290,000 compounds, 3.8% hits; inhibition, % (no concentration beside the values); AID 485317;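 active means mean and each replicate at 75% or more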;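 further: stock transfer was 7.5 nL into about 7.5 µL; 0% = neutral wells and 100% = wells with inactivated enzyme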
# Ecoli rRNA inh OD600 – also measured in Ecoli rRNA inh; calls as there; OD600 change, %; measured here: OD600 growth;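 optical density of the mix in the first replicate; 0 = DMSO median and -100 = no signal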
# Ecoli rRNA inh RFP – recorded beside Ecoli rRNA inh, whose call it bears; RFP signal change, %; measured here: RFP humanized mutant strains;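 first replicate; 0 = DMSO median and -100 = no signal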
# The depositor's hits bear a star; nt = not tested or not shown; + = active, no number. This is a subset; the hit share may differ from the screen's.
SMILES,A1 inh,B2AR ag,Calb FLC,LANA-H2A inh,Ecoli rRNA inh,Ecoli rRNA inh OD600,Ecoli rRNA inh RFP,Beta cell apopt,T cruzi repl,ALR H2O2 inh
O=c1[nH]ncc(N/N=C\c2cccnc2)c1Cl,-0.2,-1,1,-1.0,7,1,-0.7,-3,2,-8
O=C1N2c3ccccc3CCc3cccc(c32)C1(O)C(F)(F)F (centres undefined),-0.1,-3,-12,-0.4,-17*,7.7*,-1.4*,-8,27,11
O=C(c1cccs1)c1coc2ccc(O)cc12,-4.3,-14,13,-5.4,nt,nt,nt,2,-1,1
C/C=C/Cn1c(N(C)Cc2ccccc2)nc2c1c(=O)[nH]c(=O)n2C,nt,6,-13,nt,-5,-14,-5.5,nt,6,nt
Cc1ccc(C(C)NC(=O)c2ccco2)cc1 (centres undefined),0.3,2,-16,0.4,nt,nt,nt,-2,-10,1
CCOc1ccc(-c2nnn(CCC#N)n2)cc1OC,-0.2,-11,0,2.9,4,10,-4.3,-6,0,-7
O=C(CCc1c[nH]c2ccccc12)NCC1COc2ccccc2O1 (centres undefined),1.4,-4,-8,-3.2,-14,-4,6.8,-2,8,12
N#CCc1nc(CSc2nc3ccccc3o2)cs1,-1.3,-15,10,6.4,-1,-7,1.1,-2,9,5
CCCOc1c(Br)cc(C(=O)OCC(=O)NC(=O)c2cccn2C)cc1OC,0.0,7,nt,+,12,-1,2.4,-5,nt,-6
O=C(CN1CCN(c2ccccc2F)CC1)c1ccc2cc[nH]c2c1,-1.2,11,-2,4.5,-4,-1,-2.5,-11,0,nt
CC(C)CN(CC(C)C)S(=O)(=O)N1CCC(C(=O)NCCN2CCOCC2)CC1,0.3,8,7,3.9,nt,nt,nt,6,-6,nt
O=C(CNC(=S)NC(=O)c1cccs1)c1ccccc1,0.0,-19,1,2.9,nt,nt,nt,-3,-17,-1
COc1cc(NC(=O)c2cc([N+](=O)[O-])ccc2NC(=O)CNC2CCCCC2C)cc(OC)c1 (centres undefined),-0.5,8,-2,7.1,-2,-2,-0.5,17,46,-4
O=C(CO/N=C/c1ccccc1OC(F)F)NC1CCCC1,0.8,-1,-6,-1.5,-10,-15,0.1,-4,14,2
CN(Cc1ccccc1)C(=O)COC(=O)Cn1cnc2ccccc21,0.4,-10,-4,8.6,5,-12,-1.9,-13,-8,-8
O=C(Nc1cccnc1)Nc1ccc(Cl)cc1Cl,-0.8,2,50,0.2,4,1,5.2,9,2,-9
CSc1ccccc1C(=O)C1CCCN(C(=O)c2cc(C(C)C)no2)C1 (centres undefined),-0.5,-7,-1,2.9,-8,-10,0.3,1,6,-4
O=C(Nc1ccc(Cl)cn1)c1ccc2c(Cl)c3c(nc2c1)CCC3,-12,-3,9,-5.8,8,6,0.3,1,-1,-16
CCOCCn1ccc2c(OCC(=O)NCCc3ccc(OC)c(OC)c3)cccc2c1=O,-0.2,-3,-3,5.1,6,0,2.6,nt,-10,-7
COc1ccc(C(C(=O)NC2CCCCC2)N(CC2CCCO2)C(=O)CCCC(=O)Nc2ccccn2)cc1 (centres undefined),nt,-12,7,nt,-2,-3,-4.0,nt,9,nt
CCOC(=O)c1sc(S(C)=O)c2c1CCc1conc1-2 (centres undefined),0.8,-6,12,-1.3,-6,-3,4.4,-6,-37,-21
O=C(CCn1cnnn1)Nc1ccc(Cl)cc1Cl,0.9,7,-14,-2.1,nt,nt,nt,-3,2,-1
Cc1c(Nc2nc(-c3ccc(Cl)cc3)cs2)c(=O)n(-c2ccccc2)n1C,0.8,-16,12,-8.1,nt,nt,nt,4,19,35
COc1ccc(OCC(=O)Nc2c3c(nn2C(C)(C)C)CS(=O)(=O)C3)cc1,1.0,-3,-4,-0.1,5,11,0.5,-2,-8,-35
Cc1ccc(OCC(=O)Nc2cc(S(=O)(=O)N3CCCCC3)ccc2C)c([N+](=O)[O-])n1,0.1,4,-4,2.9,nt,nt,nt,5,0,-6

# (cont.)
SMILES,A1 inh,B2AR ag,Calb FLC,LANA-H2A inh,Ecoli rRNA inh,Ecoli rRNA inh OD600,Ecoli rRNA inh RFP,Beta cell apopt,T cruzi repl,ALR H2O2 inh
C=CCNc1nc(C)c(C(C)=O)cc1C#N,0.3,-11,1,-1.1,nt,nt,nt,2,2,2
COCCNC(=O)c1cc(-c2ccc(Cl)c(Cl)c2)on1,nt,-4,-4,-2.2,0,5,1.6,-7,-8,-1
COc1ccc(OC)c(-c2c(C#N)c(N)nc3c2c(=O)nc2sccn23)c1,0.1,3,-10,2.1,18,-8,-3.6,-2,7,1
Cc1cccc(NCc2ccccc2OCc2ccccc2F)c1,-2.0,-7,-8,1.1,4,9,1.2,-5,22,-9
c1ccc(N2CCN(Cc3ccsc3)CC2)nc1,0.4,-7,-8,6.5,0,7,-0.4,2,12,-4
COc1cccc(C(=O)COc2cccc(NC(=O)c3ccco3)c2)c1,-1.8,-4,3,-4.1,-19,6,11,-10,11,nt
Cc1cc(OCC(=O)NNC(=O)CCc2ccccc2)ccc1Br,-0.3,3,-13,1.1,-2,2,0.9,-5,-1,-7
O=C(O)CN1C(=O)SC(Nc2ccc(Cl)cc2)C1=O (centres undefined),-0.2,4,-5,-3.3,nt,nt,nt,4,-15,7
CCSCCNC(=O)c1cncc(Br)c1,0.2,-1,5,1.9,nt,nt,nt,1,-6,1
Cc1cccc(CS(=O)(=O)Cc2ccc(C(=O)NC3CCCCCC3)o2)c1,0.8,-5,1,-2.8,-1,-10,0.9,2,0,-2
O=C(CCNC(=O)c1ccccc1Cl)Nc1cc(C(F)(F)F)ccc1Cl,-0.3,-18,-3,5.1,13,15,6.4,-2,6,-4
O=C(NCc1nnc(SCC(=O)N2CCCc3ccccc32)o1)c1c(F)cccc1Cl,0.1,10,-8,0.7,-2,-6,3.0,-6,8,44
CCCOc1ccc(NC(N)=O)cc1OCCC,0.0,3,-1,-3.9,nt,nt,nt,-3,-1,-9
O=C(c1cccc(NS(=O)(=O)c2ccc(F)c(F)c2)c1)N1CCN(C(c2ccccc2)c2ccccc2)CC1,0.1,7,10,1.8,nt,nt,nt,14,35,-3
O=C(CN1CCN(c2ccc(F)cc2)CC1)Nc1ccc(-n2cnnn2)cc1,1.0,0,-10,4.3,nt,nt,nt,0,-10,-2
C/C(=N\O)C1/C(=N/O)CC2C1C2(C)C (centres undefined),0.1,5,28,-2.0,nt,nt,nt,-3,3,-2
Oc1ccc(-c2[nH]ncc2-c2cnn(-c3ccccc3)c2)c(O)c1,-1.0,-5,7,0.2,-19,-27,-7.3,-11,-16,98*
COc1ccc(O)c(/C=N\NC(=O)CCn2nnc3ccccc32)c1,0.0,-2,-9,0.9,nt,nt,nt,3,-3,46
O=C(NC1CCCCCC1)C(=S)NCCc1ccccc1,-2.7,2,-21,-0.6,17,7,-6.2,-6,5,-2
O=C(NCCC(=O)N1CCN(c2ccccn2)CC1)c1ccc([N+](=O)[O-])cc1,-1.1,-7,nt,-2.4,-2,10,-3.7,6,nt,-11
CCOc1ccc2[nH]c3ncccc3c(=O)c2c1,-0.4,12,14,4.2,2,4,0.3,-1,7,-17
Cc1[nH][nH]c(=O)c1C=NCc1cccs1,1.4,4,-6,1.4,8,12,2.1,-6,-15,-23
CCN1CCc2c(C#N)c(N3CCOCC3)nc(N3CCOCC3)c2C1,-0.1,-4,-20,-1.5,nt,nt,nt,nt,16,nt
CC(C)c1nccn1S(=O)(=O)c1cc(Cl)ccc1Cl,-1.1,0,-1,-4.6,nt,nt,nt,-1,5,-2
CCOC(=O)CCC(NC(=O)CCCCCCCCC(=O)NC(CCC(=O)OCC)C(=O)OCC)C(=O)OCC (centres undefined),-0.3,-1,20,1.1,nt,nt,nt,4,-18,-5

# (more compounds)
SMILES,A1 inh,B2AR ag,Calb FLC,LANA-H2A inh,Ecoli rRNA inh,Ecoli rRNA inh OD600,Ecoli rRNA inh RFP,Beta cell apopt,T cruzi repl,ALR H2O2 inh
O=C(NCc1nnc2c3ccccc3c(-c3ccccc3)nn12)c1ccccc1Cl,-0.3,-1,44,-2.4,14,4,-1.2,0,8,-5
CC1(C)Cc2c(c(-c3ccco3)nc3sc4c(NCCN5CCOCC5)ncnc4c23)CO1,-0.3,42,19,2.7,8,10,7.2,5,-37,17
c1cncc(-c2nn3c(Cn4nnc5ccccc54)nnc3s2)c1,-0.5,-25,8,2.2,11,2,-8.8,-9,-9,-1
Cc1ccnc(NC(=O)CCC(=O)N(CC(=O)NCC2CCCO2)Cc2ccc(F)cc2)c1 (centres undefined),-0.1,10,-11,1.5,nt,nt,nt,-10,nt,-2
CCC1(c2ccc(Cl)cc2)NC(=S)N(c2ccc(C)cc2)N1 (centres undefined),-0.9,9,0,-0.2,nt,nt,nt,2,-4,-4
O=C(NCCCN1CCOCC1)c1onc(CSc2ccc(F)c(F)c2)c1C(=O)NCCCN1CCOCC1,0.6,0,-4,-4.7,nt,nt,nt,nt,3,1
CCn1cc(S(=O)(=O)CC(=O)NC2CCCCC2)c2ccccc21,0.0,-12,-3,-1.8,nt,nt,nt,-1,0,nt
O=C(CCC(=O)NNC(=O)Nc1cccc(Cl)c1)NCc1ccccc1,-0.7,2,-6,-1.5,-13,-5,-0.8,-1,-1,7
O=C(Nc1ccccc1)NC(Cc1ccc(O)cc1)C(=O)O (centres undefined),-0.1,19,1,4.3,13,4,-2.9,2,-9,2
O=C(CN1C(=O)C2C3C=CC(C3)C2C1=O)Nc1nncs1 (centres undefined),0.0,1,1,2.2,14,12,3.8,-4,-10,4
COc1cccc(/C=N\n2c(C)nnc2C)c1OC,0.0,3,-7,1.1,nt,nt,nt,0,-7,-25
COc1ccc(-c2noc(CSc3nc4ccccc4c(=O)n3-c3ccccc3)n2)cc1OC,-0.5,10,-8,9.1,nt,nt,nt,9,18,0
O=C(COC(=O)/C=C/c1ccc(OC(F)F)cc1)NC1CCCCCCC1,0.3,-5,2,8.7,9,13,0.1,-3,-3,-6
Nc1ccc(C(=O)N2CCCC2)cc1,-0.3,2,-4,0.5,nt,nt,nt,-1,-11,8
O=C(c1ccco1)N1CCCC(c2nc3c(nnn3Cc3ccc(Cl)cc3Cl)c(=O)[nH]2)C1 (centres undefined),0.1,-12,17,5.2,-11,-31,0.5,-11,5,nt
O=C(Nc1ccc2sccc2c1)c1ccc(Cl)s1,-4.9,-2,-4,-2.0,6,7,1.7,8,-14,-39
COc1ccc(Br)cc1/C=N/NC(=O)c1cccc(S(=O)(=O)N2CCOCC2)c1,0.9,13,9,0.6,-5,3,-0.2,-4,-21,-1
Cc1c(NC(=O)CN2CCN(c3ccccc3)CC2)c(=O)n(-c2ccccc2)n1C,0.2,3,4,-1.1,nt,nt,nt,-1,-10,33
CC(=O)c1ccc(NS(=O)(=O)c2cc3c(cc2C)N(C(C)=O)CCO3)cc1,0.0,2,-6,8.2,8,10,-1.5,-7,6,-3
COCCNC(=O)c1cc2sc3ccccc3c2s1,-3.8,1,18,-1.8,nt,nt,nt,-3,-7,-7
CSc1nncn1/N=C/c1cc(Cl)ccc1F,1.0,3,20,-3.6,nt,nt,nt,-3,-4,1
Cn1c(=O)n(CCO)c(=O)c2c1nc(Br)n2Cc1ccccc1,1.2,1,2,1.4,32,21,8.4,-12,0,9
COc1cccc2[nH]c3ccccc3c(=O)c12,0.0,-5,4,2.4,nt,nt,nt,-6,8,-18
CC(NC(=O)c1ccncc1)C(C)(C)C (centres undefined),-1.1,2,37,2.9,nt,nt,nt,-8,-6,25
